Compound activity from PubChem BioAssay.
nsP2pro inh: CHIKV nsP2 protease inhibition, primary qHTS. FRET peptide cleavage, nsP2pro, fluorescence 1 h. Potency, µM (doses to about 24.9 µM), without a hit: at the top dose activity change, negative = inhibition, most hits filed as inhibitors. 31,000 compounds, 1.1% hits. AID 1964107; active means well fitted inhibition curve with a large enough effect; inconclusive means small, poorly fitted or top-dose-only effect; inactive means no such curve, though single readings can be large or run the other way; also: nearly all actives have a fitted effect of over 60% in size; a reference inhibitor and vehicle were the controls
An asterisk follows results filed as active; i = inactive; ? = inconclusive; & = joins results of further samples; [ ] = another dose, or the depositor's remark. % is scaled to controls: 0 for no effect and ±100 for the full control effect; potency is read from the fitted curve at half-maximal effect. These rows are one share of the data, so the mix of outcomes need not match the whole.

SMILES	nsP2pro inh
O=C(CCc1nnn2c1CN(C(=O)C1CCCC1)CC2)N1CCOCC1	4.4%
COc1cc(C(=O)NCC2(N(C)C)CCCC2)cc(OC)c1OCc1ccccc1	7.4%
O=C(NN1CCCCC1)c1nn(-c2ccc(Cl)cc2Cl)c(-c2ccc(C#Cc3ccc(C(F)(F)F)cc3)s2)c1CNS(=O)(=O)N1CCCC1	1.1%
Cc1cc(C)c(Nc2ccnc(Nc3ccc(C#N)cc3)n2)c(C)c1	10.8%
Cn1nnc(-c2ccc(-c3ccc(N4C[C@H](CO)OC4=O)cc3F)cn2)n1	-6.2%
O=S(=O)(N[C@H]1CO[C@H]2[C@@H]1OC[C@@H]2n1cc(CC2CCCCC2)nn1)c1cccs1	-11.6%
COCCNC(=O)CCC(=O)N1Cc2cccc(OC)c2Oc2ncccc21	-27.5%
Cc1onc(-c2ccccc2)c1-c1ccc(S(N)(=O)=O)cc1	-0.7%
Cc1ccc(C(=O)NCC(=O)OC(C(=O)Nc2cc(C(F)(F)F)ccc2Cl)c2ccccc2)cc1 (centres undefined)	-4.2%
Cc1ccc(NC(=O)Cn2c(=O)n(CCC(=O)NCc3ccc4c(c3)OCO4)c(=O)c3sccc32)c(C)c1	-20.5%
CCOc1ccc(-c2nc(SCC(=O)Nc3ccc(C)c(C)c3)n3[nH]c(=O)cc3n2)cc1	-26.4%
CN(C)c1oc(-c2ccc(COc3ccccc3)o2)nc1C#N	-23.6%
COc1cccc(C2c3c(ncn(-c4ccccc4C#N)c3=N)Oc3ccc4ccccc4c32)c1 (centres undefined)	i
CCn1c(CO)nnc1C1CC(NC(=O)c2[nH]c3ccc(OC)cc3c2C)C1 (centres undefined)	-1.8%
CCOc1ccc(-c2nnc(SCC(=O)Nc3ccccc3C(F)(F)F)o2)cc1	-16.6%
Cc1cc(O)ccc1Cl	-6.2%
CCCn1cc(S(=O)(=O)N2C[C@H](C3CC3)[C@@H](N)C2)cn1	i
C=CC[N+]1([C@H]2C[C@H]3[C@@H]4CC[C@H]5C[C@H](O)[C@@H](N6CCOCC6)C[C@]5(C)[C@H]4CC[C@]3(C)[C@H]2OC(C)=O)CCCC1	-4.1%
C=CC[C@]1(O)CC[C@H]2[C@@H]3CCC4=CC(=O)CCC4=C3C=C[C@@]21C	-5.7%
O=C(Nc1nc2c(s1)CCCCCC2)Nc1ccc(F)cc1F	-12.9%
N#C/C(=C/c1ccc(O)cc1)c1nc(-c2ccc(-c3ccccc3)cc2)cs1	-17.4%
CC(=O)c1ccc(N2CCN(S(=O)(=O)c3ccc4c(c3)CC(C)N4C(=O)C3CCC3)CC2)cc1 (centres undefined)	-15.0%
CC(C)c1noc(-c2cn(C3CCN(C(=O)COc4ccccc4)CC3)nn2)n1	i
Cc1ccc(Nc2c(-c3ccc(N4CCOCC4)cc3)nc3ncccn23)cc1	?
Cc1ccc(-n2c(/C=C/c3cccs3)nc3ccccc3c2=O)cc1C	-9.8%
COc1cccc(CNC(=O)CN2C(=O)CSc3c2c(C)nn3-c2ccccc2)c1OC	-4.6%
Cc1ccc2nc(NC(=O)Cn3nc4c(cc3=O)CCCCC4)sc2c1	i
Cc1cccc(N2CCN(C(=O)c3cc4c(=O)[nH]c5ccc(C)cc5c4s3)CC2C)c1 (centres undefined)	-6.3%
Cc1c(F)cccc1NS(=O)(=O)c1cccs1	-5.7%
Cc1nnc2n1-c1sc(CCC(=O)N3CCOCC3)cc1C(c1ccccc1Cl)=NC2	17.0%
COc1cc(O)c(C(CC(=O)N2CC(C)OC(C)C2)c2ccc3c(c2)OCO3)c(OC)c1 (centres undefined)	-1.6%
COc1ccc(CCN2CCC(Nc3nc4ccccc4n3Cc3ccc(F)cc3)CC2)cc1	6.1%
CCCOc1ccc(CNC(=O)C2CCN(C(=O)c3sccc3-n3cccc3)CC2)cc1	-23.6%
COc1ccccc1CNC(=O)CCC1N=C2c3ccccc3N=C(SCc3ccccc3Cl)N2C1=O (centres undefined)	9.9%
Cc1ccc(C(=O)CSc2nc3cc(C(=O)NC4CCCC4)ccc3c(=O)n2CC2CCCO2)c(C)c1 (centres undefined)	-14.2%
Cc1[nH]c2ccc(C(=O)Nc3ccc(F)cc3)cc2c1C	-21.7%
COc1cc(Cl)c(C)cc1Nc1nnc(-n2nc(C)cc2C)c2ccccc12	-28.1%
O=C(COc1ccc(F)cc1)Nc1ccccc1C(=O)OCc1cc(=O)n2nc(C3CC3)sc2n1	-9.3%
CCOc1ccc(C2CC(=O)Nc3c2c(=O)[nH]c2ncnn32)cc1 (centres undefined)	-5.7%
COCCN(C)C[C@H]1C[C@@H](CO)CN(C(=O)c2ccc(C)c(Cl)c2)C1	-1.1%
CNC(=O)c1ccc(N2C(=S)N(c3ccc(C#N)c(C(F)(F)F)c3)C(=O)C23CCC3)cc1F	-1.0%
CS(=O)(=O)c1ccc(C(=O)OCC(=O)N2CCC(c3ccccc3)CC2)cc1[N+](=O)[O-]	-13.7%
CC[C@H]1OC(=O)[C@H](C)[C@@H](O[C@H]2C[C@@](C)(OC)[C@@H](O)[C@H](C)O2)[C@H](C)[C@@H](O[C@@H]2O[C@H](C)C[C@H](N(C)C)[C@H]2O)[C@](C)(O)C[C@@H](C)CN(C)[C@H](C)[C@@H](O)[C@]1(C)O	3.1%&16.5%
CC(C)C(=O)OC[C@H]1O[C@@H](n2ccc(NO)nc2=O)[C@H](O)[C@@H]1O	-8.0%
N#Cc1ccc(CSc2nc3ncc(Br)cc3[nH]2)cc1	-8.4%
CC(C)(C[C@@](O)(Cc1cc2ccncc2[nH]1)C(F)(F)F)c1cc(F)ccc1O	36.3%[activator]
CSc1ncc(Cl)c(C(=O)Nc2ccc(NC(C)=O)cc2)n1	63.0%[activator]
Cc1noc(C)c1S(=O)(=O)N1CCCC(Cc2nncn2C(C)C)C1 (centres undefined)	-5.5%
CN(CC(=O)O)/C(N)=N/P(=O)(O)O	10.0%
CCOc1ccc(-n2nc(CO)c(C(=O)NCCCc3ccccc3)n2)cc1	-16.7%
CN(C(=O)C1(N)CC1)C1CCCN(CCCc2ccccc2)C1 (centres undefined)	4.6%
O=C(NCC1CCN(Cc2cccc(Cl)c2)CC1)Nc1cc(Cl)ccc1Cl	11.6%
COCC(=O)Nc1ncncc1-c1noc([C@@H]2CCCN2Cc2cc(OC)c(OC)c(OC)c2)n1	?
Cc1ccc(S(=O)(=O)N2CCC(Oc3ncccc3C(=O)N(C)C)C2)cc1C (centres undefined)	3.0%
CCOC(=O)C[C@@H]1C[C@@H](C(C)C)[C@H](CNC(=O)c2cccnc2)C=C1C	i
CCCn1c2ccccc2c2cnn(CC(=O)NCCCN(CC)c3ccccc3)c(=O)c21	-21.8%
O=C1CCC(CNS(=O)(=O)c2cccnc2)CCN1Cc1ccccc1 (centres undefined)	-2.3%
Cn1cnnc1CC1CCNC1 (centres undefined)	-4.6%
O=C(NCCO[N+](=O)[O-])c1cccnc1	2.7%
CC(=O)[C@@]1(O)CC[C@H]2[C@@H]3CCC4=CC(=O)CC[C@]4(C)C3(F)[C@@H](O)C[C@@]21C (some centres undefined)	-4.6%

(more compounds)
SMILES	nsP2pro inh
CCN(CC)C(=O)[C@@H]1C[C@@H](NC(=O)c2ccn(CC)c(=O)c2)CN1C(C)=O	-10.3%
O=C(CCC1N=C2c3ccccc3N=C(SCC(=O)NCCc3ccccc3)N2C1=O)NCc1ccc(F)cc1 (centres undefined)	-10.4%
CC1=C(C(=O)Nc2nccs2)C(c2ccccc2Br)N=C(Nc2nc3ccccc3o2)N1 (centres undefined)	i
COc1ccc(CC(=O)N2C[C@@H]3C[C@H](C2)c2c(-c4ccc(NC(C)=O)cc4)ccc(=O)n2C3)cc1	-4.5%
COCCCN1CN=C(NS(=O)(=O)c2ccc(NC(C)=O)cc2)NC1	-16.5%
Cc1cc(Cl)ccc1NC(=O)CN1C(=O)C(=O)c2ccccc21	-22.2%
O=C(CN1C(=O)N/C(=C\c2cn(-c3cccc(C(=O)O)c3)cn2)C1=O)Nc1ccc(Cl)cc1	?
CCC1CCCCN1C(=O)Cn1c(=O)oc2cc(S(=O)(=O)N3CCCCC3)ccc21 (centres undefined)	-21.3%
CCN(CC)S(=O)(=O)c1ccc2c(c1)N(CC(=O)N(C)Cc1ccccc1)C(=O)CO2	-10.3%
COc1cccc(CC(=O)NCc2ccc(Cl)s2)c1	-7.3%
CC(=O)OC1CC(O)C2(C)C(CC(OC(C)=O)C3(C)C2CCC2(C)C(c4ccoc4)C(=O)C4OC423)C1(C)C (centres undefined)	?
COc1ccccc1CC(=O)N1CC[C@@H]2NC(=O)[C@H]3C[C@H](NC(=O)C4CCC4)CN3C(=O)[C@H]21	-1.1%
COc1ccc(CCNC(=O)CCS(=O)(=O)c2cc(Br)cc3c2N(C(C)=O)CC3)cc1OC	-22.0%
Cc1ccc2nc3sc(C(=O)NC4CCC(O)CC4)cc3cc2c1 (centres undefined)	4.3%
Cc1cccc(C)c1-c1nc(C(=O)N2CCN(c3ncccn3)CC2)n2ccccc12	i
CNC(C)(C)Cc1ccccc1	-6.1%
Cc1ccc(SCc2nc(-c3ccc(C(=O)NCc4ccccc4Cl)cc3)oc2C)cc1	-15.0%
CN1C(=O)CC[C@]2(C(=O)N3CCCCC3)CCCC[C@@H]12	4.1%
COc1cc2c(cc1OC)C1Cc3ccc(OC)c(OC)c3CN1CC2 (centres undefined)	-3.5%
COc1cncc(NC(=O)c2cccs2)c1	-11.8%
COc1cccc(CCC(=O)NC2CCN(c3cc(C(F)(F)F)nc(C)n3)CC2)c1	-2.3%
CCOc1ccc(S(=O)(=O)n2c(C)nc3ccccc32)cc1	2.1%[10 µM]
O=C(CCC1CCN(Cc2cn(-c3ccccc3)nn2)CC1)N1CCOCC1	0.3%
CCN(CC)CCN(C(=O)c1ccco1)c1nc2ccc(Br)cc2s1	24.4%
c1ccc(CC2=NOC3(CCN(Cc4c[nH]c5ccccc45)CC3)C2)cc1	-1.0%
O=C(Nc1nnc(-c2ccc3c(c2)OCCO3)o1)C1CCCCC1	27.4%
CO[C@@H]1C[C@H](O[C@H]2CC[C@@]3(C)C(CCC4C3CC[C@]3(C)[C@@H](C5=CC(=O)OC5)[C@@H](OC(C)=O)CC43O)C2)O[C@H](C)[C@@H]1O[C@H]1O[C@H](CO[C@@H]2O[C@H](CO)[C@@H](O)[C@H](O)[C@H]2O)[C@@H](O)[C@H](O)[C@H]1O (some centres undefined)	4.9%[5.1 µM]
CCCn1c(C)nc2c(N(CCN(C)C)Cc3ccccc3)nc(C)nc21	i
O=C(Cc1ccc(Cl)cc1)N1CCN(C2CCN(Cc3ccccn3)C2=O)CC1 (centres undefined)	-4.7%
CC[C@H](C)[C@H](NC(=O)[C@H]1CCCCN1C)C(=O)N(COC(=O)CC(C)C)[C@H](C[C@@H](OC(C)=O)c1nc(C(=O)N[C@@H](Cc2ccc(O)cc2)C[C@H](C)C(=O)O)cs1)C(C)C	15.8%[0.689 µM]

Reformatted field by field: 4 of the compounds above
> Cc1ccc(SCc2nc(-c3ccc(C(=O)NCc4ccccc4Cl)cc3)oc2C)cc1
  nsP2pro inh: -15.0%

> CN1C(=O)CC[C@]2(C(=O)N3CCCCC3)CCCC[C@@H]12
  nsP2pro inh: 4.1%

> COc1cc2c(cc1OC)C1Cc3ccc(OC)c(OC)c3CN1CC2 (centres undefined)
  nsP2pro inh: -3.5%

> COc1cncc(NC(=O)c2cccs2)c1
  nsP2pro inh: -11.8%

The listing picks up; the two compounds before the break are reprinted first.
SMILES	nsP2pro inh
O=C(Cc1ccc(Cl)cc1)N1CCN(C2CCN(Cc3ccccn3)C2=O)CC1 (centres undefined)	-4.7%
CC[C@H](C)[C@H](NC(=O)[C@H]1CCCCN1C)C(=O)N(COC(=O)CC(C)C)[C@H](C[C@@H](OC(C)=O)c1nc(C(=O)N[C@@H](Cc2ccc(O)cc2)C[C@H](C)C(=O)O)cs1)C(C)C	15.8%[0.689 µM]
Cc1ccc(-c2cc(C(=O)N3CCC(c4cc(CC(=O)O)[nH]n4)CC3)n[nH]2)o1	-20.0%
CCC(CC)[C@H](NC(C)=O)[C@@H]1[C@H](O)[C@@H](C(=O)O)C[C@H]1N=C(N)N	?
O=C(c1cc(-c2ccccc2)nc2ccccc12)N1CCc2c(nc[nH]c2=O)C1	-1.4%
Cc1cc(C)c(-c2nnc(NC(=O)Nc3ccc4ccccc4c3)s2)c(C)c1	-3.5%
COc1cccc(C(=O)NCC(c2ccc(N(C)C)cc2)N2CCc3ccccc32)c1 (centres undefined)	-9.5%
O=C(c1ccc(CN2C(=O)NC3(CCOCC3)C2=O)cc1)N1CCc2ccccc2C1	1.2%
COCCNC(=O)[C@@H]1C[C@@H](O)CN1C1CCN(C(=O)Cc2ccccc2)CC1	?
CCOC(=O)c1c(NC(=O)COc2cccc(C)c2C)sc(C(C)=O)c1C	-26.5%
C=C(C)C(=O)O[C@H]1/C(C=O)=C\CC/C(CO)=C/[C@H]2OC(=O)C(=C)[C@@H]2[C@@H]1OC	11.3%
Cc1ncc(CN2CCCC2C(=O)Nc2ccc(-c3cccc(F)c3)cc2)[nH]1 (centres undefined)	i
CCNc1nc2c(s1)C(c1cccc(F)c1)CC(=O)N2 (centres undefined)	?
COc1ccc(OC)c(NC(=O)N2CCC(N3CCN(Cc4ccc(F)cc4)C(=O)C3=O)CC2)c1	-18.6%
CC(=O)N1c2ccc(S(=O)(=O)N3CCCCCC3)cc2CC1C(=O)NCc1ccccc1F (centres undefined)	-17.2%
CCNC(=O)CCC/C=C\C[C@@H]1[C@@H](/C=C/C(O)CCc2ccccc2)[C@@H](O)C[C@@H]1O (some centres undefined)	-2.6%
Cc1nc2ccccn2c1C(O)(c1ccccc1)c1ccccc1	-6.9%
NCc1cccc(-c2cncnc2)c1	-14.6%[39.2 µM]
O=C(NCc1ccc(Cl)cc1)c1ccc2cc[nH]c2n1	-22.5%[39.2 µM]
